Assay outcomes from PubChem BioAssay.
VDR inh: Inhibitors of the vitamin D receptor (VDR): qHTS | Vitamin D3 receptor (Homo sapiens), P11473 | VDR-SRC2-3 peptide fluorescence polarization, 2 h | Potency, µM, for the others: max response, negative = inhibition, most hits filed as inhibitors | hit rate 0.93% among 400,000 | AID 504847, 2011; active means well fitted inhibition curve with a large enough effect; inconclusive means small, poorly fitted or top-dose-only effect, or another doubt; inactive means no such curve, though single readings can be large or run the other way; further: series mostly up to about 120 µM
Target sequence (P11473 whole entry, looked up): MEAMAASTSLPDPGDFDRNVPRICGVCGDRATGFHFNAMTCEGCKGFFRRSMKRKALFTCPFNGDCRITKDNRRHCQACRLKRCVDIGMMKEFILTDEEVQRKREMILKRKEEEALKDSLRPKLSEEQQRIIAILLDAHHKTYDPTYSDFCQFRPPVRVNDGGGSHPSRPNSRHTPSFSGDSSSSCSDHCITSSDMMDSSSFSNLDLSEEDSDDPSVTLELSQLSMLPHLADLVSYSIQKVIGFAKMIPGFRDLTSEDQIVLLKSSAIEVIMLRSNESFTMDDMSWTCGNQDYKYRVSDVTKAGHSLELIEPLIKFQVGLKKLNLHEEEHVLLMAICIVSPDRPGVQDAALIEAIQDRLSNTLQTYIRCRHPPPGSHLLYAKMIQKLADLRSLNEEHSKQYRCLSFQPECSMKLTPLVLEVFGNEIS
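Fluorescence polarization assay measuring small-molecule disruption of VDR binding to the coregulator peptide SRC2-3. Compounds were pin-transferred (23 nl) into the reagent mix and incubated 2 h at room temperature before reading.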
The depositor's hits bear a star; ? = inconclusive; & = joins results of further samples; [ ] = dose if it differs, or a comment. On the % scale 0 is the no-effect control and ±100 the full control effect; potency means the concentration at half of the fitted maximal effect.

VDR inh,molecule
-10%&11%,CCOc1ccc(OCC)c(NS(=O)(=O)c2ccc3c(c2)CCN3C(=O)C2CCC2)c1
-15%,CCC(C)(C)NC(=O)C(c1ccc(F)cc1)N(Cc1ccc(OC)cc1)C(=O)c1cnccn1 (centres undefined)
6%,Cc1ccc(C)c(Nc2cc(C)nc3ccccc23)c1
1%,Cc1cc(=O)n(C(C)Cc2ccccc2)n1C(C)Cc1ccccc1 (centres undefined)
?,N#Cc1c(Nc2ccccc2C(F)(F)F)s[nH]c1=O
2%,O=C(c1ccc(Cl)c(S(=O)(=O)N2CCOCC2)c1)N(c1ccccn1)C1CCCCC1
12%,S=C(NCCc1ccc(Cl)cc1)NCc1ccccc1
17%,Cc1ccc(C(C)C)c(OCC(O)CN2CCc3ccccc3C2)c1 (centres undefined)
-9%&1%,Cc1ccc(C)c(-c2ccc(=O)n(Cc3ccc(F)cc3Cl)n2)c1
6%,COc1cccc(C(=O)N(Cc2ccco2)c2ccccn2)c1
25%,COc1ccc(-c2csc(NC(=O)CSc3n[nH]c(C)n3)n2)cc1
-16%,CN(C)S(=O)(=O)c1ccc(C(=O)NCC(=O)N/N=C/c2ccccc2Cl)cc1
-2%,C=CCOc1ccc(-c2nc3c(c(=O)[nH]c(=O)n3CCCC)n2C)cc1Br
1%,O=C1CC(N2CCSCC2)C(=O)N1c1ccccc1 (centres undefined)
?,Cc1sc(N)c(C(=O)c2ccccc2)c1C
2%,O=C1NC2C(NC(=O)N2C2CCCCC2)N1C1CCCCC1 (centres undefined)
9%,CCOC(=O)N1CCC(N2C(=O)c3ccc(C(=O)Nc4ccc(OC)cc4)cc3C2=O)CC1
-12%,COC(=O)C1=C(C)NC2=C(C(=O)CC(c3cccs3)C2)C1c1ccsc1 (centres undefined)
12%,O=C(Nc1ccccc1)c1ccc2c(c1)OCCO2
10%,CCC(C)N(C(=O)COC(=O)c1nc(Cl)ccc1Cl)C1CCS(=O)(=O)C1 (centres undefined)
10%,CC(=O)c1ccc(S(=O)c2ccccc2)cc1 (centres undefined)
31%[activator],CCN(CC(=O)Nc1ccc(OC)cc1)CC(=O)Nc1ccc(Br)cc1F
8%,CCn1cc(CN2CCC(C(=O)Nc3ccc(Oc4ccccc4F)cc3)CC2)c(C)n1
-6%,Cn1c(SCC(=O)Nc2ccccc2-c2ccccc2)nnc1-c1ccco1
-5%,COc1ccc(N(CC(=O)NC2CCCCC2)S(=O)(=O)c2c(C)[nH]c(=O)[nH]c2=O)cc1
-7%,CCCOc1ccc(S(=O)(=O)Nc2ccccn2)c2ccccc12
2%,COc1ccccc1C(=O)NC(=S)NNC(=O)c1sc2ccccc2c1Cl
-2%,Cc1cc(C)c2nc(NC(=O)C3CC(=O)N(Cc4ccco4)C3)sc2c1 (centres undefined)
0%,COc1ccc(N(CC(=O)NCc2ccco2)C(=O)CNS(=O)(=O)c2ccc(Cl)cc2)cc1
-11%,COc1ccc(CNC(=O)CCS(=O)(=O)c2cccc3nonc23)cc1
0%,Cc1cccc(N2CCN(C(=O)c3cccc(-n4c(C)nc5cccnc54)c3)CC2C)c1 (centres undefined)
-5%,CC(C)CCNC(=O)COc1ccc2c(c1)C(=O)CC(C)(C)O2
7%,CCC1Oc2ccccc2N(CC(=O)NCc2cc(OC)ccc2OC)C1=O (centres undefined)
-11%,COc1cccc([C@@H]2CC=C(C(=O)O)CN2S(=O)(=O)c2ccc(C)cc2)c1
-26%,Brc1ccc(C2Nc3cccc4cccc(c34)N2)o1
-4%,Cc1nn(CC(=O)Nc2ccc3c(c2)CCC3)c(C)c1[N+](=O)[O-]
-11%,S=C(Nc1ccccc1Cl)N(Cc1ccccc1)Cc1ccccn1
2%,O=C(CC1C(=O)NCCN1C(=O)c1ccc(Cl)cc1)Nc1ccc(F)cc1 (centres undefined)
29%,O=C(Cc1nnc(NC(=O)Nc2ccccc2)s1)NCc1ccccc1
-14%,CN(c1ccccc1)c1ccc(/C=C(/CCC(=O)O)c2nc3ccccc3s2)cc1[N+](=O)[O-]
-11%,NC(=O)c1ccc(N2CCN(c3ccc(O)cc3)CC2)c([N+](=O)[O-])c1
-20%,NC(=O)COC(=O)c1ccc(Cl)c(S(=O)(=O)N(Cc2ccccc2)c2ccc(Cl)cc2)c1
-3%,CCCc1[nH]nc2c1C1(CCOC1C)C(C#N)=C(N)O2 (centres undefined)
1%,CC1C(=O)CC(c2ccccc2)NC1c1ccccc1 (centres undefined)
-26%,CCC(=O)Nc1cccc(-c2nc3ncccc3o2)c1C
2%,CCS(=O)(=O)N1CCc2cc(C(=O)N3CCN(c4ccc(OC)cc4)CC3)ccc21
6%,CCOc1ncccc1C(=O)OCc1c(Cl)cccc1Cl
17%,CC(C)(C)n1nnnc1C(c1cccc(C#N)c1)N1CCN2CCCC2C1 (centres undefined)
-4%,Cc1cccc(NS(=O)(=O)c2csc(C(N)=O)c2)c1C
-10%,CCOC(=O)C1=C(C)C2C3C(=O)N(c4ccc(C)cc4C)C(=O)C3C1(C)C1C(=O)N(c3ccc(C)cc3C)C(=O)C21 (centres undefined)
21%,COc1ccc(C(=O)N/C(=C\c2cccs2)C(=O)N2CCN(C)CC2)cc1OC
15%,CCCn1c(N)c(C(=O)CSc2nc3ccccc3c(=O)n2Cc2ccccc2)c(=O)[nH]c1=O
4%,O=C(Nc1ccccc1-c1nc2ccccc2[nH]1)c1ccc(S(=O)(=O)N2CCCCC2)cc1
-1%,COc1ccc(NC(=O)CN(c2ccc(C)cc2)S(=O)(=O)c2c(C)nn(C)c2C)cc1OC
-15%,C/C(=N\Nc1nccnc1Cl)c1ccc(O)c(C)c1
2%,COc1ccc(S(=O)(=O)N(CCCN2CCCC2=O)Cc2cc3c(C)cc(C)cc3[nH]c2=O)cc1
10%,O=C(Cc1ccsc1-c1ccccc1)NO
21%,O=C(CN1C(=O)c2ccccc2S1(=O)=O)c1ccc2c(c1)OCCCO2
?,Cn1c(/C(C#N)=C/c2ccccc2Br)nc2ccccc21
-23%,O=[N+]([O-])c1cccnc1Oc1ccc(F)cc1

Next part:
VDR inh,molecule
-15%,Cc1cccc(CCN2C(Nc3ccccc3)=NC[C@@H]2CC(C)C)c1
-26%,Nc1c(Cl)ncnc1N/N=C/c1cccc(O)c1
-2%,COc1ccc(NC(=O)c2oc3ccc(S(=O)(=O)N(C)C4CCCCC4)cc3c2C)cc1
19%,CC(C)Sc1nc2c(c(=O)n1-c1ccc(F)cc1)SCC2
?,CN(C)c1ccc(-c2nc(NCCN3CCOCC3)c3ccccc3n2)cc1
-3%,CCN(C(=O)Cn1c(=O)oc2cc(S(=O)(=O)N3CCOCC3)ccc21)c1ccccc1
9%,Cc1cccc(N2CCN(S(=O)(=O)c3ccc(-c4cc(C(F)(F)F)on4)s3)CC2)c1C
-23%,O=C(COc1cc2oc(=O)cc(-c3ccccc3)c2cc1Cl)NC(Cc1c[nH]c2ccc(O)cc12)C(=O)O (centres undefined)
-11%,CC1C[C@@]2(NC(=O)NC2=O)C(C)CN1C (some centres undefined)
6%,Cc1ccc(N2CCN(C(=O)c3ccccc3NC(=O)c3ccccc3C(=O)O)CC2)cc1
-17%,CC(=C/c1ccco1)/C=N/NC(=O)Cc1cccn1C
-26%,Cc1ccc([C@H]2C(C(=O)O)=CC[C@@H](c3ccc(Cl)c(Cl)c3)N2S(=O)(=O)c2ccc(C)cc2)cc1
-20%,Cc1cccc(-n2c(Cc3cc(=O)[nH]c(=O)[nH]3)nnc2SCC(=O)N2CCCCC2)c1
2%,COc1cc(OC)c(NC(=O)c2cc3c(s2)-c2ccc(Cl)cc2SC3)cc1Cl
-16%,O=[N+]([O-])c1ccc(-c2ccc(/C=N/O)o2)cc1
-2%,COc1ccc(OC)c(NC(=O)CSc2nnc(CNC(=O)c3cc(OC)c(OC)c(OC)c3)o2)c1
8%,CC(C)C(=O)N1CCC2(CC1)Oc1ccc(Cl)cc1C(=O)C21CC(c2ccc(Cl)cc2)=NO1 (centres undefined)
-14%,O=C(CCCN1C(=O)c2cccc3cccc(c23)C1=O)N1CCN(Cc2ccc3c(c2)OCO3)CC1
-6%,COc1ccccc1NCCC(=O)OCC(=O)NC1CCCCCC1
-16%,Cc1ccc(C)c(CNc2ccc(S(=O)(=O)N3CCCCC3)cc2)c1
-1%,CSc1nc2sc3c(c2c(=O)n1C)CCCC3
16%,O=c1[nH]c(SCCOc2cccc3ccccc23)nc2ccccc12
22%,CN1CCN(C(CNC(=O)c2cccc(F)c2)c2ccc3c(c2)OCO3)CC1 (centres undefined)
13%,CCn1c(SCc2ccc(C#N)cc2)nnc1-c1ccc(S(=O)(=O)N2CCCCC2)cc1
-6%,C[C@H]1CN([C@@H](C)CO)C(=O)c2cccc(NS(=O)(=O)c3cn(C)cn3)c2O[C@H]1CN(C)S(C)(=O)=O
19%,COC(=O)Cn1cc(C(=O)c2ccco2)c2ccccc21
-9%,CCOC(=O)N1CCN(c2ccncc2S(=O)(=O)N2CCCCC2)CC1
-16%,Cc1oc(CSCCSCc2cc(C(=O)O)c(C)o2)cc1C(=O)O
8%,Cc1cc(N2CCOCC2)ccc1/C=C1\NC(=O)N(CC(=O)Nc2ccccc2C)C1=O
7%,CC(C)CCN(CC(=O)NCc1ccc(F)cc1)S(=O)(=O)c1ccccc1F
11%,O=C1CCCN1CCNC(=S)Nc1ccccc1
3%,O=C(Nc1cccc(NC(=O)c2ccc(F)cc2)c1)c1ccc(F)cc1
-8%,CCC(=O)NC(c1ccccc1)c1c(O)ccc2ccccc12 (centres undefined)
-19%,O=C(CCc1ccccc1)NCC(=O)N/N=C/c1ccc(O)cc1O
-4%,O=C(CSc1nncc2ccccc12)Nc1cccc(O)c1
-4%,CCc1ccc(-c2nc(CN3CCCC(C(=O)NCc4ccccc4Cl)C3)c(C)o2)cc1 (centres undefined)
17%,CCOC(=O)c1c(C)[nH]c(C)c1S(=O)(=O)N(C)CC(=O)N1CCN(c2ccc(Cl)cc2)CC1
3%,Cc1oc(CC(C)C)cc1C(=O)Nc1ccc(C(=O)O)cc1
1%,CCC(Oc1ccccc1F)C(=O)NCCCn1ccnc1 (centres undefined)
?,Cc1cc(C)n(-c2nnc(NC34CC5CC(CC(C5)C3)C4)nn2)n1
-7%,NC(=O)C1Cc2ccccc2CN1C(=O)c1nn(Cc2ccccc2)c(=O)c2ccccc12 (centres undefined)
2%,COc1ccccc1CN1CCN(Cc2ccc3ccccc3c2)CC1
-21%,Cn1c(=O)c2c(ncn2CC(=O)Nc2ccccc2)n(C)c1=O
6%,Fc1cccc(/C=N/Nc2ccccn2)c1
?,O=C(N1CCOCC1)N1CCN(C(=O)N(c2ccccc2)c2ccccc2)CC1
1%,O=C(NCCCn1ccnc1)c1ccc(Cl)s1
-16%,COCCn1c(=O)c(-c2ccc(F)cc2)nc2cnc(Oc3ccc(OC)cc3)nc21
-7%,Fc1ccccc1/C=C1\CCCC2=C1NC(=S)NC2c1ccccc1F (centres undefined)
-2%,CCC(CC)C(=O)Nc1nnc(S(=O)(=O)N(CC)c2ccc(OC)cc2)s1
-2%,COc1cc(C2NC(=O)NC(c3ccccc3)=C2C(C)=O)c(Cl)cc1OCC(=O)O (centres undefined)
-5%,CCOc1cccc(C(=O)Nc2nnc(S(=O)(=O)N(C)c3ccc(C)cc3)s2)c1
-12%,Cc1cc(C)n2ncc(C(=O)NCCc3ccccc3)c2n1
20%,Cc1cc(C)nc(Nc2cccc(Cl)c2)n1
-19%,CS(=O)(=O)c1ccc(C(=O)Nc2cc(-c3ccccc3)nn2-c2ccccc2)cc1
13%,Cc1cccc(-c2noc(-c3ccccc3OCC(=O)Nc3ccccc3[N+](=O)[O-])n2)c1
-14%,COc1cc(/C=C2\SC(=S)N(Nc3ccccc3)C2=O)ccc1O
?,Cc1ccc(S(=O)(=O)Nc2ccc(S(=O)(=O)Nc3ncccn3)cc2)cc1
-14%,CCc1cccc(CC)c1NC(=O)CSc1nnc(C2CC2)n1N
3%,Cc1ccc(-c2cc(NC(=O)CSc3n[nH]c(N)n3)n(-c3ccccc3)n2)cc1
1%,Cc1cnc(C)c(N2CCN(Cc3nc(-c4ccc(C)o4)oc3C)CC2)n1

Compounds above that have an NH in an aromatic ring, in the order listed:
VDR inh,molecule
?,N#Cc1c(Nc2ccccc2C(F)(F)F)s[nH]c1=O
25%,COc1ccc(-c2csc(NC(=O)CSc3n[nH]c(C)n3)n2)cc1
-2%,C=CCOc1ccc(-c2nc3c(c(=O)[nH]c(=O)n3CCCC)n2C)cc1Br
-5%,COc1ccc(N(CC(=O)NC2CCCCC2)S(=O)(=O)c2c(C)[nH]c(=O)[nH]c2=O)cc1
-3%,CCCc1[nH]nc2c1C1(CCOC1C)C(C#N)=C(N)O2 (centres undefined)
15%,CCCn1c(N)c(C(=O)CSc2nc3ccccc3c(=O)n2Cc2ccccc2)c(=O)[nH]c1=O
4%,O=C(Nc1ccccc1-c1nc2ccccc2[nH]1)c1ccc(S(=O)(=O)N2CCCCC2)cc1
2%,COc1ccc(S(=O)(=O)N(CCCN2CCCC2=O)Cc2cc3c(C)cc(C)cc3[nH]c2=O)cc1
-23%,O=C(COc1cc2oc(=O)cc(-c3ccccc3)c2cc1Cl)NC(Cc1c[nH]c2ccc(O)cc12)C(=O)O (centres undefined)
-20%,Cc1cccc(-n2c(Cc3cc(=O)[nH]c(=O)[nH]3)nnc2SCC(=O)N2CCCCC2)c1
16%,O=c1[nH]c(SCCOc2cccc3ccccc23)nc2ccccc12
17%,CCOC(=O)c1c(C)[nH]c(C)c1S(=O)(=O)N(C)CC(=O)N1CCN(c2ccc(Cl)cc2)CC1
3%,Cc1ccc(-c2cc(NC(=O)CSc3n[nH]c(N)n3)n(-c3ccccc3)n2)cc1

Some of the compounds tested; rates above refer to the full screens.
